# RE007 growth inh: less growth of the S. pombe RE007 Vpr strain. Potency, µM (top dose mostly 92.2 µM), inactives show at the top dose activity change, negative = less growth. 360,000 compounds, 0.21% hits. S. pombe RE007 Vpr strain, BacTiter-Glo ATP luminescence, 24 h; control for the full effect not named in the record; active = well fitted falling curve with a large enough effect; inconclusive = small, poorly fitted or top-dose-only effect; inactive = no such curve, though single readings can be large or run the other way;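 note: % is set by controls: 0 for no effect and ±100 for the full control effect; nearly all actives have a fitted effect of over 50% in size; the assay follows cell death caused by Vpr and the record does not say whether a fall means rescue or toxicity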
#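 Fission yeast strain RE007, carrying one chromosomally integrated HIV-1 vpr copy, was seeded at OD 0.01 in PMG+AL medium with 23 nL pinned compound. After 24 h at 30 °C and 99% humidity, viability was read by BacTiter-Glo luminescence.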
# SARS PLP yeast: blocks SARS-CoV papain-like protease in a yeast assay; S. cerevisiae expressing SARS-CoV PLpro, growth rescue; control for the full effect not named in the record; 330,000 compounds, 0.19% hits; Potency, µM (titrated, usually from 32.9 µM), for inactives: top-dose activity, positive = growth rescue; active means well fitted rising curve with a large enough effect; inconclusive means small, poorly fitted or top-dose-only effect; inactive means no such curve, though single readings can be large or run the other way; note: 0% is about no effect; nearly all actives have a fitted effect of over 55% in size; growth read by luminescence after 48 h
# Cruzain inh noDet: inhibitors of Trypanosoma cruzi cruzain without detergent | purified cruzain, Z-FR-AMC fluorescence, no detergent | AID 1476 | 200,000 compounds, 2.3% hits | P25779 | Potency, µM, for inactives: max response, negative = inhibition, most hits filed as inhibitors;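 note: plate controls were enzyme without inhibitor for no effect and buffer without enzyme for full effect; nearly all actives have a fitted effect of over 40% in size; top concentration of the series not given in the record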
# Target sequence (P25779 123-467 limits assumed): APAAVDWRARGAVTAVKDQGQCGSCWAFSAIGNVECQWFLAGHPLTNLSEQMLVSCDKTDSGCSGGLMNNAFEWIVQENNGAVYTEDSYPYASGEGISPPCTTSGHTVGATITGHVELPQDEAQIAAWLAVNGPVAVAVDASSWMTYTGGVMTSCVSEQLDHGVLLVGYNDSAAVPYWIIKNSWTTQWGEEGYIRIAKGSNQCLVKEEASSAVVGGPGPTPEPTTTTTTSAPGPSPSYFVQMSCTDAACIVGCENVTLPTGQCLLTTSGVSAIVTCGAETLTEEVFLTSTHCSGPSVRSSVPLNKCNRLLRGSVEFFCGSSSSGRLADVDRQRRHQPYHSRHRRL
#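 Detergent-free condition (0.00005% Triton X-100) in acetate buffer pH 5.5 with DTT. 1.5 nM enzyme and compound were pre-mixed 15 min, then 2 uM Z-FR-AMC substrate added; reaction progress from fluorescence change between first and third reads (60 s).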
# NS1 function inh: blocks influenza NS1 protein function. S. cerevisiae slowed by influenza A NS1, growth recovery by OD600. Potency, µM (doses to about 46.1 µM), for inactives: top-dose activity, positive = more growth. 270,000 compounds, 0.4% hits; active means well fitted rising curve with a large enough effect; inconclusive means small, poorly fitted or top-dose-only effect; inactive means no such curve, though single readings can be large or run the other way; note: nearly all actives have a fitted effect of over 50% in size
#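 Recovery from NS1-induced slow growth read by OD600 in budding yeast switched to galactose assay medium (pH 6.0, -URA) at 1:100 dilution. Compound 23 nl per well; the matching strain lacking NS1 serves as control.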
# Cruzain inh Det: inhibitors of Trypanosoma cruzi cruzain with detergent; P25779; 200,000 compounds, 0.43% hits; purified cruzain, Z-FR-AMC fluorescence, 0.01% Triton; Potency, µM, inactives show max response, negative = inhibition, usual class: inhibitors;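 note: plate controls were neutral wells for no effect and buffer without enzyme for full effect; nearly all actives have a fitted effect of over 40% in size; top concentration of the series not given in the record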
#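 Sodium acetate buffer (100 mM, pH 5.5) containing 5 mM DTT and 0.01% Triton X-100 hosted 1.5 nM cruzain and test compound for 15 min at room temperature. Cleavage of 2 uM Z-FR-AMC was then tracked by fluorescence.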
# 2A StopGo: FMDV 2A StopGo reporter, luciferase signal; human cells with a luciferase reporter of 2A StopGo recoding; control for the full effect not named in the record; Potency, µM (titrated, usually from 57.9 µM), for the others: at the top dose signal change, negative = less light; 410,000 compounds, 1.2% hits; AID 1159524; active = well fitted falling curve with a large enough effect; inconclusive = small, poorly fitted or top-dose-only effect; inactive = no such curve, though single readings can be large or run the other way; tested in HEK293T cells; note: % is set by controls: 0 for no effect and ±100 for the full control effect; nearly all actives have a fitted effect of over 45% in size; luciferase light after 4 h
# Marburg entry inh: inhibitors of Marburg virus binding or cell entry. Marburg virus pseudotyped entry inhibition, cell reporter; control for the full effect not named in the record; about a third of the inactives were read at about 46 µM. Potency, µM (top dose mostly 37.8 µM), for the others: at the top dose activity change, negative = inhibition, hits mostly inhibitors. 300,000 compounds, 1.8% hits; active = well fitted inhibition curve with a large enough effect; inconclusive = small, poorly fitted or top-dose-only effect, or effect the other way; inactive = flat fitted curve, though single readings scatter; tested in HEK293 cells; about a fifth of its hits are not listed in these tables; note: % is set by controls: 0 for no effect and ±100 for the full control effect; luciferase read-out
# Lassa entry inh: inhibitors of Lassa virus binding or cell entry | Lassa virus pseudotype entry inhibition, cell reporter; control for the full effect not named in the record | Potency, µM (doses to about 37.9 µM), inactives show top-dose activity change, negative = inhibition, most hits filed as inhibitors | 300,000 compounds, 1.2% hits | AID 540256; active means well fitted inhibition curve with a large enough effect; inconclusive means small, poorly fitted or top-dose-only effect, or effect the other way; inactive means flat fitted curve, though single readings scatter; tested in HEK293 cells; note: % is set by controls: 0 for no effect and ±100 for the full control effect; nearly all actives have a fitted effect of over 50% in size; luciferase read-out
# Starred values were filed as active, the others as inactive; ? = inconclusive; nt = not tested or not shown; [ ] = dose if it differs, or a comment. Unless noted, calls come from the whole dose curve; as a rule, active = well fitted curve in the direction sought with a large enough effect; inconclusive = small, poorly fitted or top-dose-only effect, or another doubt; inactive = no such curve, though single readings can be large; an effect the other way counts as inactive or inconclusive. Potency is the fitted concentration of half-maximal effect.
SMILES,RE007 growth inh,SARS PLP yeast,Cruzain inh noDet,NS1 function inh,Cruzain inh Det,2A StopGo,Marburg entry inh,Lassa entry inh
O=C(NC1CCCCC1)C(c1cccs1)N(Cc1cccs1)C(=O)c1ccco1 (configuration not stated),8%,1%,-9%,-3%,-0.7%,nt,?,-10%
O=C(c1ccccn1)c1cc2ccccc2n1S(=O)(=O)c1ccccc1,-4%,-19%,-2%,12%,-7.7%,66%[activator],21%,23%
Cn1cccc1/C=N/NC(=O)c1ccccn1,-17%,-5%,nt,-3%,nt,-1%,nt,nt
CCS(=O)(=O)c1ccc(-c2csc(-c3ccccc3Cl)n2)c(Cl)c1Cl,-9%,6%,?,-2%,-2.1%,-27%,20%,-4%
CC(C)NC(=O)COC(=O)c1cccc(NS(=O)(=O)/C=C/c2ccccc2)c1,-7%,0%,-12%,3%,-1.4%,-7%,7%,-21%
CSc1nc(Cl)c(C#N)c(-c2ccc(C)cc2)n1,-9%,-4%,-4%,2%,2.8%,nt,-2%,4%
CCOCC(=O)Nc1ccc(S(=O)(=O)Nc2nccs2)cc1,-9%,-3%,nt,0%,nt,6%,nt,nt
CSc1ncccc1C(=O)OCC(=O)Nc1cccc(S(=O)(=O)N2CCOCC2)c1,9%,7%,nt,nt,nt,-5%,11%[46.1 µM],8%[46.1 µM]
COC(=O)c1ccc(NS(=O)(=O)c2cc3c4c(c2)C(C)C(=O)N4CCC3)cc1 (configuration not stated),7%,4%,nt,nt,nt,43%[activator],16%,-11%
Cc1c(NC(=O)CNCc2ccc3c(c2)OCO3)c(=O)n(-c2ccccc2)n1C,-7%,0%,nt,3%,nt,-28%,-13%[46.1 µM],-10%
CCc1sc(C(=O)NCCCN2CCCC2=O)cc1Br,-4%,nt,nt,nt,nt,12%,16%,20%
CCOc1ccc(CCNC(=O)C2CCN(S(=O)(=O)N3CC(C)CC(C)C3)CC2)cc1OCC (configuration not stated),-17%,-7%,nt,4%,nt,?,nt,nt
CSc1ccc(C#N)cc1NC(=O)c1cccnc1Cl,23%,-1%,nt,nt,nt,-5%,2%[46.1 µM],24%[46.1 µM]
COc1ccc(/C=C/C(=O)OCC(=O)NCCc2ccccc2)c(OC)c1,9%,-28%,nt,nt,nt,3%,-42%[46.1 µM],0%[46.1 µM]
CCN(CC)C(=O)CC(c1ccc(OC)cc1)c1c(O)cc(OC)cc1OC (configuration not stated),-9%,-1%,nt,5%,nt,-6%,nt,nt
CCCc1cc(NCCCN2CCOCC2)n2c(nc3ccccc32)c1C#N,-3%,1%,-17%,6%,-8.4%,-26%,-10%,-1%
Cc1ccccc1C(=O)NCCN=C1NS(=O)(=O)c2ccccc21,5%,3%,2%,4%,2.5%,-9%,nt,nt
CC(=O)c1cccc(NC(=O)COC(=O)c2ccc3c(c2)OCCO3)c1,-9%,2%,nt,nt,nt,?,4%,-7%
O=C(O)c1cc(-c2cccc([N+](=O)[O-])c2)nc2ccccc12,7%,0%,nt,1%,nt,8%,15%[46.1 µM],8%
CCCN1CCN(C(=O)Cn2ncc3ccccc32)CC1,-9%,-4%,6%,2%,-4.4%,-16%,nt,nt
COc1ccc(CN2CCN(Cc3ccco3)CC2)cc1,-2%,-2%,nt,4%,nt,4%,?,?
CN1C(=O)N(C)C2(c3ccccc3)Nn3c(s/c(=C/c4ccccc4)c3=O)=NC12c1ccccc1 (configuration not stated),-6%,5%,20%,-4%,5.1%,-3%,-19%,-19%
CCC1(c2ccc(F)cc2)NC(=O)N(CC(=O)N(C)C2CCS(=O)(=O)C2)C1=O (configuration not stated),2%,0%,nt,nt,nt,19%,-2%,14%
COc1cc(OC)cc(C(=O)N[C@H](C(=O)N2CCc3ccccc32)C(C)C)c1,-4%,1%,17%,-5%,-7.4%,-10%,?,-18%
COc1ccc(-n2c(SCC(=O)Nc3cc(C)on3)nc3c(c2=O)SCC3)cc1OC,2%,5%,nt,19%,nt,-3%,-2%,11%
CC(C)Oc1ccc(CSc2nnc3n(C)c(=O)c4c5c(sc4n23)CCCC5)cc1,2%,nt,nt,nt,nt,62%,-19%,-5%
N=c1c2c(n(Cc3cccc(Cl)c3)c3c1CCC3)CCCC2,-1%,-38%,-10%,-4%,-7.1%,nt,?,?
CCOC(=O)c1[nH]c(C)c(/C(O)=C2\C(=O)C(=O)N(CCCN(C)C)C2c2cccnc2)c1C (configuration not stated),-3%,1%,?,-3%,-2.1%,-9%,11%,2%
COc1ccccc1CN1C[C@@H]2C[C@@H](C3=Cc4cccc(OC)c4OC3)N3CCC[C@@]23C1=O,0%,1%,nt,-4%,nt,-28%,-26%[46.1 µM],-25%
Nc1nn2c(-c3ccccc3)cc(=O)[nH]c2c1N=Nc1ccc(Br)cc1,-1%,0%,nt,2%,nt,-3%,nt,nt
C=CCSc1nnc(NC(=O)Cc2ccc(OC)c(OC)c2)s1,0%,-4%,nt,nt,nt,-24%,-21%[46.1 µM],-18%
CC(=O)c1ccc(N2CCN(S(=O)(=O)c3c(C)[nH]c(C)c3C(=O)N3CCCCC3)CC2)cc1,1%,1%,nt,-18%,nt,7%,12%[46.1 µM],9%[46.1 µM]
CC(=O)Oc1cc(OC(C)=O)c2c(C)cc(=O)oc2c1,32%,-1%,13%,23%,5.7%,-19%,14%,10%
CCN(Cc1ccccc1)c1ccc(/C=N/NC(=S)NC(C)C)cc1,5%,?,?,10%,-7.0%,?,?,?
O=[N+]([O-])c1ccccc1S(=O)(=O)N1CCN(Cc2ccccc2)CC1,-2%,1%,nt,-8%,nt,-18%,nt,nt
CS(=O)(=O)N1CCN(c2ccccc2NC(=O)c2ccc(-c3ccc(Br)cc3)o2)CC1,-12%,5%,25µM*,2%,-3.2%,-4%,-17%,-22%
COc1ccc2nc(SCc3nc(N)nc(Nc4ccccc4)n3)[nH]c2c1,-14%,-8%,-24%,2%,-11%,-24%,?,-5%
COC(=O)c1ccccc1NC(=S)NC(=O)c1cccc2ccccc12,-3%,3%,13%,5%,-3.4%,-24%,-8%,-3%
Cn1c(-c2cccc(F)c2)nc2c1c(=O)[nH]c(=O)n2Cc1ccccc1,-7%,11%,nt,7%,nt,1%,0%[46.1 µM],8.9µM*
O=C(COC(=O)c1ccc[nH]c1=O)c1ccc(Cl)s1,3%,-5%,6%,-1%,-6.2%,16%,?,-5%
CCOC(=O)N1CCN(C(=O)Cc2ccc(-n3c(=O)[nH]c4ccccc4c3=O)cc2)CC1,0%,-3%,-5%,-12%,6.8%,9%,28%,19%
COc1cc(OC)c(NS(=O)(=O)c2cc(Br)cnc2N)cc1Cl,-6%,0%,nt,-7%,nt,6%,nt,nt
c1coc(-c2nn3c(Cn4nnc5ccccc54)nnc3s2)c1,-7%,-3%,3%,-25%,2.0%,0%,18%,10%
CC(C)C(=O)Nc1cc(S(=O)(=O)Nc2cccc(Cl)c2)ccc1Cl,8%,-1%,-16%,8%,-7.5%,54%[activator],nt,nt
CN(C)S(=O)(=O)c1cccc(NC(=S)NC(=O)C2CCCCC2)c1,-5%,-1%,-9%,24%,-22%,-10%,25%,?
COc1ccc(CC(=O)Nc2ccc(-c3noc(-c4cccc(OC)c4)n3)cc2)cc1,17%,4%,7.9µM*,?,2.6%,-2%,3%,?
Cc1ccc(C2N(C)c3ccccc3-c3nc4ccccc4n32)o1 (configuration not stated),3%,-24%,?,-67%,4.5%,-10%,?,6%
CCC(C)C(=O)Nc1c2c(nc3c1CCC3)CCCC2 (configuration not stated),8%,0%,-8%,7%,-4.1%,0%,-1%,-2%
CC(=O)NC1=NN(C(C)=O)C2(S1)C(=O)N(C(C)C)c1ccc(C)cc12 (configuration not stated),6%,5%,6%,6%,-0.3%,66%[activator],8%,4%
O=C1CN(C(=O)c2c(F)cccc2F)C(c2ccccc2)c2cc(Br)ccc2N1 (configuration not stated),17%,-4%,nt,4%,nt,-20%,nt,nt
Cc1ccc(S(=O)(=O)N2CCC(C(=O)OCC(=O)NCc3ccco3)CC2)cc1C,19%,nt,nt,nt,nt,-11%,2%[46.1 µM],19%
O=C(COc1ccc(Cl)cc1)N(c1ccccc1Cl)C1CN2CCC1CC2 (configuration not stated),1%,0%,nt,2%,nt,?,?,?
Cc1ccc(C)c(Cn2c(CCCNC(=O)C3CCCCC3)nc3ccccc32)c1,nt,nt,8%,nt,-3.3%,-29%,nt,2%[46.1 µM]
COc1ccc(NC(C)=O)cc1NC(=O)c1cccc(C(F)(F)F)c1,-20%,0%,nt,2%,nt,-5%,29%[46.1 µM],-20%
COc1ccc(C(=O)Nc2ncc(C)s2)cc1S(=O)(=O)N1CCCC1,3%,0%,nt,nt,nt,1%,12%[46.1 µM],0%
O=C(c1cncc(Br)c1)N1CCN(S(=O)(=O)c2ccc(Cl)cc2)CC1,93%,0%,nt,7%,nt,38%[activator],1%[46.1 µM],-10%[46.1 µM]
CN(CC(=O)N1CCCC1)S(=O)(=O)c1cccc(Cl)c1,-16%,3%,nt,2%,nt,2%,5%[46.1 µM],17%[46.1 µM]
O=C(NC(=S)Nc1ccc(CN2CCOCC2)cc1)c1ccc2c(c1)OCCO2,-29%,-7%,nt,4%,nt,?,10µM*,-24%
O=C(NCC1CCCO1)C1CCCN(S(=O)(=O)c2ccc(Cl)cc2)C1 (configuration not stated),8%,0%,nt,3%,nt,-8%,-4%[46.1 µM],29%
CC1=CC(=O)C2=C(C)CC(O)C3C(C)C(=O)OC3C12 (configuration not stated),-6%,-1%,10%,4%,4.2%,-9%,-8%,-7%
COCCNC(=O)C(c1ccc(C)o1)N(Cc1ccc(OC)cc1)C(=O)Cn1nnc2ccccc21 (configuration not stated),-1%,5%,?,-5%,-0.5%,28%,11%,0%
COc1cc(C(=O)Nc2ccc(-n3c(C)nc4ccccc4c3=O)cc2)cc(OC)c1OC,nt,nt,11%,nt,-1.4%,0%,nt,-20%[46.1 µM]

# Bioassay records deposited in PubChem by National Center for Advancing Translational Sciences (NCATS).
